Source: PubChem BioAssay (National Center for Advancing Translational Sciences (NCATS))
VDR inh: Inhibitors of the vitamin D receptor (VDR): qHTS | Vitamin D3 receptor (Homo sapiens), P11473 | VDR-SRC2-3 peptide fluorescence polarization, 2 h | Potency, µM, for the others: max response, negative = inhibition, actives largely listed as inhibitors | 400,000 tested, 0.93% active; active = well fitted inhibition curve with a large enough effect; inconclusive = small, poorly fitted or top-dose-only effect, or another doubt; inactive = no such curve, though single readings can be large or run the other way; note: series mostly up to about 120 µM
Target sequence (P11473 whole entry, looked up): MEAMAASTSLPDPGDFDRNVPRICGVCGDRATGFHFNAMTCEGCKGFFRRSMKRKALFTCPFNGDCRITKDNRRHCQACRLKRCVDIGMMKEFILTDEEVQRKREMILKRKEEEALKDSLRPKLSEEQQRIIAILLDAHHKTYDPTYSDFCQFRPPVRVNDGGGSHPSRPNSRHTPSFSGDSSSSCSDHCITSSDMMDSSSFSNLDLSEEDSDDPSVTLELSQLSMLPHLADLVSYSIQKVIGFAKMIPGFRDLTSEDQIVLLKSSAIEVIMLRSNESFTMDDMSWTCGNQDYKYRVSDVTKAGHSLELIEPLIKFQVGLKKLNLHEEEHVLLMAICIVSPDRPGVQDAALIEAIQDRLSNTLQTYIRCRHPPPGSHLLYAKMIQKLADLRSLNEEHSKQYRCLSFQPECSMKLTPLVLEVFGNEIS
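Measured by FP: displacement of SRC2-3 coactivator peptide from VDR by library compounds, following a two-hour ambient incubation.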
* = called active by the depositor; ? = inconclusive. % is set by controls: 0 for no effect and ±100 for the full control effect; potency is the fitted concentration of half-maximal effect.

SMILES	VDR inh
CN(C)S(=O)(=O)c1cccc(NC(=O)COC(=O)/C=C/c2ccc([N+](=O)[O-])cc2)c1	-6%
Cc1cc(S(=O)(=O)Nc2cccc(Cl)c2)c(C)s1	-1%
COc1cc(-c2nc(N)n[nH]2)cc(OC)c1OC	-6%
COc1ccc(CCNc2ccc(C(CC(N)=O)NC(=O)c3ccc(Br)cc3)cc2[N+](=O)[O-])cc1 (configuration not stated)	-10%
CCOc1ccc(-c2cccc(NC(=O)c3ccc(Br)o3)c2)nn1	2%
O=C(CSc1ccccc1)Nc1ccc2c(c1)OCO2	-14%
O=C(CN1C(=O)C2C3C=CC(C4CC34)C2C1=O)NCc1ccco1 (configuration not stated)	1%
O=C(CCN1CCOCC1)N/N=C/c1cc([N+](=O)[O-])ccc1OC(F)F	0%
COc1ccc([N+](=O)[O-])cc1NC(=O)c1ccc(N(Cc2ccccc2Cl)S(C)(=O)=O)cc1	-18%
Cc1nn(Cc2ccccc2)c(C)c1NS(=O)(=O)c1ccccc1	-8%
O=C(COC(=O)/C=C/c1ccccc1)NC1CCS(=O)(=O)C1 (configuration not stated)	13%
CCOc1ccc(OCCNC(=O)c2ccc3c(c2)nnn3CC)cc1	-4%
CCC(C)NC(=O)CC(NS(=O)(=O)c1ccc(NC(C)=O)cc1)C(C)C (configuration not stated)	-23%
CC(=O)c1cccc(N(CC(=O)NCC2CCCO2)C(=O)CCC(=O)Nc2cc(C)on2)c1 (configuration not stated)	4%
CCn1c(SCC(=O)c2cc(OC)ccc2OC)nnc1-c1ccncc1	0%
COc1cccc2sc(N(CCN(C)C)C(=O)c3ccc(S(=O)(=O)N4CCCC4)cc3)nc12	-6%
CC(C)(C)C(=O)CN1C(=O)NC(c2ccccc2)(c2ccccc2)C1=O	-1%
Cc1ccc(NC(=O)c2ccc3c(=O)n4c(nc3c2)CCCCC4)cc1F	11%
CSCC[C@H](NC(=O)[C@H](CO)NC(=O)[C@H](Cc1ccc(O)cc1)NC(=O)[C@@H](N)CO)C(=O)N[C@@H](CCC(=O)O)C(=O)N[C@@H](Cc1cnc[nH]1)C(=O)N[C@@H](Cc1ccccc1)C(=O)N[C@@H](CCCNC(=N)N)C(=O)N[C@@H](Cc1c[nH]c2ccccc12)C(=O)NCC(=O)N[C@@H](CCCCN)C(=O)N1CCC[C@H]1C(=O)N[C@H](C(=O)NCC(=O)N[C@@H](CCCCN)C(=O)N[C@@H](CCCCN)C(=O)N[C@@H](CCCNC(=N)N)C(=O)N[C@@H](CCCNC(=N)N)C(=O)N1CCC[C@H]1C(=O)N[C@H](C(=O)N[C@@H](CCCCN)C(=O)N[C@H](C(=O)N[C@@H](Cc1ccc(O)cc1)C(=O)N1CCC[C@H]1C(=O)O)C(C)C)C(C)C)C(C)C	-4%
CCOC(=O)c1[nH]c2ccccc2c1NC(=O)c1ccccc1F	-20%
Cc1oc(-c2ccccc2)nc1Cn1cccc1C1=NC(c2ccccc2)CO1 (configuration not stated)	0%
COc1ccc2[nH]c3c(NCCN(C(C)C)C(C)C)ncnc3c2c1	-6%
Cn1cc(C2OC(=O)c3ccccc32)c2ccccc21 (configuration not stated)	-17%
COc1ccc(N2CCN(S(=O)(=O)/C=C/c3ccccc3)CC2)cc1	-4%
O=C(Nc1cccc(C(F)(F)F)c1)NC1CCCCC1	12%
The list goes on.
SMILES	VDR inh
Cc1cc(C)cc(OCC(=O)OCC(=O)N(C)CC(=O)Nc2ccc(F)cc2)c1	-4%
CCOC(=O)c1c(NC(=O)c2cc(-c3cccc(Cl)c3)on2)sc(C)c1C	-15%
NS(=O)(=O)c1ccc(CNC(=O)Cc2ccsc2)cc1	10%
CCN(CC)C(=O)N1CCC(NC(=O)c2ccccc2)CC1	2%
Cc1cc(C)cc(N(CC(=O)NCc2ccco2)S(=O)(=O)c2c(C)noc2C)c1	15%
O=C(COc1ccc2ccccc2c1)N/N=C/C1CC=CCC1 (configuration not stated)	-11%
CN(C(=O)COC(=O)c1nc(Cl)ccc1Cl)C1CCS(=O)(=O)C1 (configuration not stated)	4%
CC12CC(c3ccccc3O1)C(/C(N)=N/NC(=O)c1ccc(F)cc1)C(=O)N2 (configuration not stated)	9%
COc1ccc(Br)cc1C(=O)Nc1cccc(C)c1C	-7%
COc1cc(C2c3cc4c(cc3OC(NCc3ccccc3)C2C)OCO4)cc(OC)c1OC (configuration not stated)	-3%
Cc1ccc(CN2CCN(Cc3ccc(-n4cccn4)cc3)CC2CCO)cc1 (configuration not stated)	-10%
CC(=O)Nc1ccc2c(c1)ncn2C1CCCCC1	-16%
CCOC(=O)C(=CNc1ccc(O)c(C(=O)OC)c1)C(=O)OCC	6%
CN(C)c1ccc(C=c2c3ccccc3n3c2c2ccccc2[n+]3C)cc1	-93%
COc1ccc(S(=O)(=O)N2CCOCC2)cc1NC(=O)c1ccc(Cl)cc1	4%
CCN1CCc2c(sc3c2c(NCc2ccco2)nc2nnnn23)C1	25%
CCC1(c2ccc(F)cc2)NC(=O)N(CC(=O)NCC(=O)Nc2cccc(C)c2C)C1=O (configuration not stated)	-7%
O=C(Nc1ccncc1NC(=O)c1cccc([N+](=O)[O-])c1)c1cccc([N+](=O)[O-])c1	18%
CC1CCN(S(=O)(=O)c2ccc3c(c2)CCN3C(=O)Nc2ccc(Br)cc2F)CC1	-5%
Cc1ccc(C(=O)NCCCN2CCOCC2)cc1N1CCCC1=O	10%
COc1ccc(NC(C)=O)cc1S(=O)(=O)NC1CCSc2ccccc21 (configuration not stated)	9%
CCOc1cc(Cl)c(S(=O)(=O)NCCCn2ccnc2)cc1Cl	-5%
O=C(CN1C=NS(=O)(=O)c2ccccc21)Nc1ccccc1F	4%
Cc1cc(C(=O)COC(=O)CN(C)S(=O)(=O)c2ccc(Cl)cc2)c(C)n1CC1CCCO1 (configuration not stated)	-2%
Cc1ccc(NC(=O)Cn2ncc(Cl)c(Cl)c2=O)cc1S(=O)(=O)N1CCCCC1	?

Next section, starting with the last seven of the part before.
SMILES	VDR inh
CC1CCN(S(=O)(=O)c2ccc3c(c2)CCN3C(=O)Nc2ccc(Br)cc2F)CC1	-5%
Cc1ccc(C(=O)NCCCN2CCOCC2)cc1N1CCCC1=O	10%
COc1ccc(NC(C)=O)cc1S(=O)(=O)NC1CCSc2ccccc21 (configuration not stated)	9%
CCOc1cc(Cl)c(S(=O)(=O)NCCCn2ccnc2)cc1Cl	-5%
O=C(CN1C=NS(=O)(=O)c2ccccc21)Nc1ccccc1F	4%
Cc1cc(C(=O)COC(=O)CN(C)S(=O)(=O)c2ccc(Cl)cc2)c(C)n1CC1CCCO1 (configuration not stated)	-2%
Cc1ccc(NC(=O)Cn2ncc(Cl)c(Cl)c2=O)cc1S(=O)(=O)N1CCCCC1	?
Cn1cc(C(=O)Nc2ccccn2)c(=O)c2ccccc21	-5%
Cc1cc(=O)oc2c(C)c(OCC(=O)N(C)C)ccc12	10%
CCCCOc1ccc(S(=O)(=O)NC(=O)NCc2ccc(OCCC)cc2)cc1	6%
CCC(CC)NC(=O)COC(=O)c1cc(SC)ccc1Cl	-9%
Cc1ccc(/C=N\NC(=O)CCc2n[nH]c(=O)[nH]c2=O)o1	?
CCc1sc(C(=O)Nc2cccc(-n3cnnn3)c2)cc1C	5%
Cc1ccc(-n2c(C)cc(/C=c3/sc4nc5ccccc5n4c3=O)c2C)cc1	7%
O=C(COc1cccnc1[N+](=O)[O-])NCCc1ccccc1	-3%
COc1ccc2c(CC(=O)OCC(=O)NC(=O)c3cccn3C)coc2c1	-11%
CC(=O)NC1(c2ccc(F)cc2)CCN(C(=O)c2c(F)cccc2F)CC1	-3%
C#CCn1cnc2c(cnn2-c2ccc(F)cc2)c1=O	4%
Fc1ccccc1NC(=S)N1CCCCC1	15%
CCOc1cc(/C=N/N=C2/NC(=O)C(CC(=O)O)S2)ccc1OCc1ccc(Cl)cc1Cl (configuration not stated)	5%
CC(OC(=O)Cc1ccc(Br)cc1)C(=O)NC1CCCC1 (configuration not stated)	-6%
CC(=O)/C(C#N)=C1\NC(=O)C(Cc2ccc(F)cc2)S1 (configuration not stated)	8%
COc1ccc(-c2cc(C(=O)NCC3CCCO3)c3ccccc3n2)cc1 (configuration not stated)	-6%
COc1cccc(CNc2nc3nc4c(c(=O)n3[nH]2)CCC4)c1	-6%
O=S(=O)(c1ccc(F)cc1)N1CCC(O)(c2ccc3c(c2)OCO3)CC1	7%
COCc1cc(=O)[nH]c2cc(NC(=O)C(C)(C)CCl)c(C)cc12	-7%
Cc1ccc(C)c(NC(=O)NNC(=O)c2cc3ccccc3cc2O)c1	-1%
Cc1cc(C)c(S(=O)(=O)NC(C)C)c(C)c1-n1cnnn1	5%
COc1ccc(NC(=O)CS(=O)(=O)c2ccc(Br)cc2)cc1	6%
Cc1ccccc1NC(=O)Cn1c(=O)n(Cc2ccco2)c(=O)c2ccc(C(=O)NC3CCCC3)cc21	13%
COC(=O)C1CCN(C(=O)/C=C/c2ccccc2)CC1	-11%
CC(=O)c1cc(C#N)c(NCCCN(C)C)nc1C	13%
The list goes on:
SMILES	VDR inh
N#Cc1ccc(C(=O)Nc2ccn(-c3ccccc3)n2)cc1	26%
Cc1ccccc1/C=N/Nc1ccnc2cc(Cl)ccc12	15%
O=C(Nc1ccccc1C(=O)O)c1ccc(CN2C(=O)c3ccccc3C2=O)cc1	-28%
CC(=O)N1CCC(N(C(=O)Nc2ccc(C)c(C)c2)C2CCCC2)CC1	-3%
Cc1ccc(Nc2c(-c3ccc(N(C)C)cc3)nc3nc[nH]n23)cc1	-11%
COc1ccc(NC(=O)CSc2nnc(CNc3ccc(C)cc3)n2C)cc1	8%
COc1ccc(N2CCN(C(=O)CCNS(=O)(=O)c3ccc4c(c3)CCN4C(=O)C3CC3)CC2)cc1	4%
Cc1ccc(NC(=O)CSc2nc3nn(-c4ccccc4)c(=O)c-3c3n2CCCCC3)cc1F	15%
COc1ccc(NC(=O)CSc2nc3c(c(=O)[nH]2)CN(Cc2ccccc2)CC3)cc1Cl	9%
O=C(CSc1nc2c(c(=O)[nH]1)CN(Cc1ccc3c(c1)OCO3)CC2)Nc1ccc(F)c(F)c1	5%
O=C(CSc1nc(-c2ccc(Cl)cc2)[nH]c(=O)n1)Nc1cccc(Cl)c1	-17%
COc1ccc(NC(=O)C2CC(=O)N(c3ccccc3C)C2)c(OC)c1 (configuration not stated)	-6%
CC(=O)Nc1c2c(nn1-c1ccccc1C)CSC2	-20%
COc1ccccc1/C=C/c1onc(C)c1S(=O)(=O)N1CCC(C(=O)N2CCC(C)CC2)CC1	14%
COc1ccccc1NC(=O)C(=O)NNC(=O)c1ccco1	-5%
CCOc1ccc(NC(=O)CN2C(=O)COc3ccc(S(=O)(=O)NC4CCCC4)cc32)cc1	14%
Cc1nc2ccccn2c1-c1csc(Nc2cccc(C(=O)O)c2)n1	-11%
COc1cccc(Nc2c3c(nc4nncn24)CCC3)c1	2%
Cc1ccc(-c2nnc(N3CCN(S(C)(=O)=O)CC3)c3ccccc23)cc1	-1%
O=C(OC1CCOC1=O)c1cc(Cl)ccc1[N+](=O)[O-] (configuration not stated)	13%
CC[C@@H](C)[C@H](NC(=O)Cc1c(C)c2cc3c(C)c(C)oc3c(C)c2oc1=O)C(=O)O	-20%
COc1ccc(S(C)(=O)=O)cc1S(C)(=O)=O	-1%
CC1(C)CC2(CC(c3ccc(F)cc3)c3ccc(O)cc3O2)NC(=S)N1 (configuration not stated)	-11%
CCS(=O)(=O)c1nc(S(=O)(=O)c2ccc(C)cc2)c(NC)s1	8%
O=C(Nc1cnc2ccccc2c1)c1ccco1	-4%

Some of these compounds in order of the VDR inh value, smallest number first.
Compound | VDR inh
Cc1nc2ccccn2c1-c1csc(Nc2cccc(C(=O)O)c2)n1 | -11%
O=C(Nc1cnc2ccccc2c1)c1ccco1 | -4%
O=C(CSc1nc2c(c(=O)[nH]1)CN(Cc1ccc3c(c1)OCO3)CC2)Nc1ccc(F)c(F)c1 | 5%
COc1ccc(NC(=O)CSc2nnc(CNc3ccc(C)cc3)n2C)cc1 | 8%
COc1ccccc1/C=C/c1onc(C)c1S(=O)(=O)N1CCC(C(=O)N2CCC(C)CC2)CC1 | 14%

(list continues)
SMILES	VDR inh
COc1ccccc1N=C1SCC(=O)N1Cc1ccco1	-11%
Cc1ccc(C)c(-c2nn(CC(=O)Nc3cc(F)ccc3F)c(=O)c3c2CCCC3)c1	-7%
COCCN(C(=O)CSc1nnc(-c2ccco2)n1C)c1c(N)n(CC(C)C)c(=O)[nH]c1=O	-6%
O=C1CCN(Cc2ccccc2)CCN1[C@H](COc1ccccc1)c1ccccc1	-28%
OC(CN1CCN(c2ccccc2)CC1)c1ccc2c(c1)CCN2 (configuration not stated)	8%
CCN(CC(=O)Nc1c(F)cccc1F)C(=O)CNC(=O)c1ccc2c(c1)OCO2	1%
Cc1csc2nc(O)c(C(=O)NCC3CCCO3)c(=O)n12 (configuration not stated)	3%
CC(C)(C)Nc1nc(Cl)nc(NC(C)(C)C)n1	-9%
CC(OC(=O)c1ccc2c(c1)C(=O)N(Cc1ccncc1)C2=O)C(=O)Nc1cccc(Cl)c1Cl (configuration not stated)	0%
C=CCc1cc(C)ccc1OCCn1ccnc1	-2%
COc1ccc(N2CC(NC(=O)C3CCCCC3)CC2=O)cc1 (configuration not stated)	5%
O=C(/C=C/c1ccccc1)Oc1ccccc1C(=S)N1CCOCC1	3%
CCCCC12CN3CC(C)(CN(C1)C3c1ccc(O)c(OC)c1)C2=O (configuration not stated)	8%
O=C(c1ccncc1)N1CCC[C@@]2(CCN(c3ncccn3)C2)C1	-2%
Cc1ccc(OCC(O)CNCc2ccc(F)cc2)cc1 (configuration not stated)	0%
Cc1ccc(NC(=S)NC2CCSc3ccccc32)cc1 (configuration not stated)	15%

This is a subset; rates above refer to the full screens.
